Screening data: PubChem BioAssay, ICCB-Longwood Screening Facility, Harvard Medical School
MenB inh – Mtb MenB enzyme inhibition; MenB enzyme assay, absorbance read-out; some hits fall short of the stated cut; actives 0.43% (n = 100,000); inhibition, %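 (about 12 µg/mL by stock and volumes)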; P9WNP5;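 active means mean of two replicates above 30%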;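 further: 0% = no compound and 100% = wells with inactive enzyme; the first replicate is given; strong numbers were not always called active; inactives centre near -10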
Target sequence (P9WNP5 whole entry, looked up): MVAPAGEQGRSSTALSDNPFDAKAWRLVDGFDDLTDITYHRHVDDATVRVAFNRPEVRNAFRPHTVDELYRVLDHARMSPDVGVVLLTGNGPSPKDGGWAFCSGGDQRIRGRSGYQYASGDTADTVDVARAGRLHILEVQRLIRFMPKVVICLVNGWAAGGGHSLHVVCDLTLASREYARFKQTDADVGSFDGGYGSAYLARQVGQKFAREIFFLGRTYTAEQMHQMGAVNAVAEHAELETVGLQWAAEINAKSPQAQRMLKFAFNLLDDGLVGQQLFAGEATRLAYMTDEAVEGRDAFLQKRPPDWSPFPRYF
MbtI inh – MbtI salicylate synthase inhibition; P9WFX0; purified MbtI enzyme, fluorescence intensity read-out; inhibition, %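 (about 17 µg/mL by stock and volumes)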; actives 0.89% (n = 100,000);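 active means above 50% in both replicates, above 80% if mildly self-fluorescent; inactive means the rest, strongly fluorescent compounds included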;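 further: 0% = mean of negative and 100% = mean of positive controls; one replicate is shown; some compounds called inactive have numbers as strong as hits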
Polio RdRp inh – poliovirus RNA polymerase inhibition; poliovirus polymerase elongation, fluorescence polarization; active compounds read low; % elongation, % (compound at 16.7 µg/mL); actives 0.66% (n = 150,000); AID 588519; in the data active means % elongation below about 90%; further: some results filed as inactive read as strong as hits
Target sequence (P03300 1749-2209 limits assumed): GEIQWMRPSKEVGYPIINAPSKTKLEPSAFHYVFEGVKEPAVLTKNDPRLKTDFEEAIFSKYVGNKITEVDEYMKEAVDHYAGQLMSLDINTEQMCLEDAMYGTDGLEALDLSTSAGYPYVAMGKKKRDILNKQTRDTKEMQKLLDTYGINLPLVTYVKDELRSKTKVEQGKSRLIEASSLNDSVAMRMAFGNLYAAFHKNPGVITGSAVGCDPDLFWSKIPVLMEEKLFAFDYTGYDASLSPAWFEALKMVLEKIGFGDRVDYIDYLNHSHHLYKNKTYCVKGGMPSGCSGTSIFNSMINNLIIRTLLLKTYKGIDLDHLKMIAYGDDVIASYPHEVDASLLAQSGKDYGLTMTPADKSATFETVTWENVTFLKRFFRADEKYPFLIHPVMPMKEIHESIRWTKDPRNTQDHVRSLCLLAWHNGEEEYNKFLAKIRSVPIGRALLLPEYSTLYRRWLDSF
Polio RdRp inh intensity – also measured in Polio RdRp inh; calls as there; % elongation; measured here: total intensity read-out; formula for this scale not given here;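 total fluorescence in place of polarization; lower means less elongation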
Starred values were filed as active, the others as inactive; i = inactive; nt = not tested or not shown; & = joins results of further samples; ! = not confirmed by another sample. The order is random; about 1.7% have a hit in one of these screens.

SMILES	MenB inh	MbtI inh	Polio RdRp inh	Polio RdRp inh intensity
CCCN1C(=O)c2ccc(C(=O)Nc3cc(OC)c(OC)cc3C(=O)O)cc2C1=O	-4	11	101	99
CCN(CC)c1ccc(CNc2ccc3c(c2)ncn3C)cc1	-24	-36	99	100
O=C(CC(=O)NCc1ccc(Cl)cc1)NCc1ccc(Cl)cc1	nt	-15	103	107
C=CCNc1nc(Nc2ccc(-c3nc4ccccc4o3)cc2)nc(N2CCOCC2)n1	-39	i	102	105
CCN(CC)C(=O)COCC1CCCN2CCCCC12 (configuration not stated)	-8	nt	100	105
CCOc1ccccc1NC(=O)C(C)CC (configuration not stated)	4	-25	99	104
COc1cccc(C(=O)COc2ccc3ccc(=O)oc3c2)c1	-31	-17	100	105
CCCN(Cc1cc2cccc(C)c2[nH]c1=O)C(=O)c1cc(OC)c(OC)c(OC)c1	-46	12	105	102
NS(=O)(=O)c1ccc(NC(=O)/C=C/c2ccccc2)cc1	-24	nt	102	107
O=C(Nc1nncs1)c1ccco1	-12	13	100	102
Cn1ccsc1=NC(=O)Cc1ccc(Cl)c(Cl)c1	-6	-2	118	121
Clc1cccc(NCc2cccc3c2CN(CC2CCCO2)C3)c1 (configuration not stated)	3	-4	99	104
Cc1nonc1NC(=O)CSc1ccccn1	-9	-6	104	105
Cc1ccccc1Nc1nc(N)nc(CSCC(=O)N2CCc3ccccc32)n1	-13	0	105	105
O=C1S/C(=C\c2ccc(Cl)cc2)C(=O)N1Cc1ccccc1	-21	8	101	99
CC1CCN(C(=O)CCCC(=O)O)CC1	-1	nt	107	109
Cc1csc2nc(CSCC(=O)N3CC(C)CC(C)C3)cc(=O)n12 (configuration not stated)	-5	2	105	101
C=C(C)c1cccc(C(C)(C)NC(=O)N2CCN(c3ccc(OC)cc3)CC2)c1	10	-3	101	102
O=c1[nH]c(=S)[nH]c2nc(-c3cccs3)cc(C(F)(F)F)c12	-34	42	91	106
O=C(COc1ccc(S(=O)(=O)N2CCCC2)cc1)N1CCCC1	30	2	100	103
Nc1cccc(/C=C/c2ccncc2)c1	-11	-3	103	103
COc1cccc(/C=C/C(=O)OCC(=O)N2CCC(C)CC2)c1	-65	41	100	108
N#Cc1c(SCC(=O)Nc2nccs2)nsc1SCC(=O)Nc1nccs1	-2	14	102	102
Cc1ccc(Nc2cc(Nc3ccccc3)ncn2)cc1	9	-6	102	104
COC(CNc1cc(C)nc2c(-c3ccc(Cl)cc3)c(C)nn12)OC	8	-195	99	105

The results go on:
SMILES	MenB inh	MbtI inh	Polio RdRp inh	Polio RdRp inh intensity
O=C(O)COCC(=O)Nc1ccc(Br)cc1	9	nt	98	107
C/C(=N\N=c1/sc2ccccc2n1C)c1ccc(S(=O)(=O)NCc2ccco2)cc1	-111	1	104	110
NC(=O)C1CCN(C(=O)c2ccccc2)CC1	-15	-22	102	102
Cc1cccc(-c2nnc(SCc3nc4sc5c(c4c(=O)[nH]3)CCC(C)C5)n2C)c1 (configuration not stated)	-18	15	107	218
O=C(NCCSc1nnnn1-c1ccccc1)Nc1ccccc1	-5	-2	104	107
CC(C)OC(=S)Nc1cccc(Cl)c1	0	0	101	96
O=c1c2[nH]c3ccccc3c2ncn1CCCN1CCCC1	-11	75	104	107
FC(F)(F)c1cc(N2CCN(c3ccccc3)CC2)c2cccc(Cl)c2n1	-7	-2	104	106
CC1CCCN(S(=O)(=O)c2cccc(S(C)(=O)=O)c2)C1 (configuration not stated)	-54	-11	100	102
CCCN(C(=O)c1ccc(=O)n(C)n1)S(=O)(=O)c1ccc(Cl)cc1	9	-7	100	106
O=C(O)CCS(=O)(=O)c1ccc2c(c1)OCCO2	24	-2	101	100
CCC(N)CC12CC3CC(CC(C3)C1)C2 (configuration not stated)	-3	-8	102	105
O=C(CN1c2ccccc2Sc2ccccc21)N/N=C/c1ccco1	-6	17	101	103
CCC(=O)Oc1ccc(C#N)cc1OC	3	8	100	102
CCOc1ccc(-n2c(SCC(=O)N(C)C3(C#N)CCCCC3)nc3ccccc32)cc1	-2	2	102	106
O=C(CNCc1ccccc1F)NC(=O)Nc1ccc2c(c1)OCCO2	-10	1	99	97
COc1cc2c(cc1OC)CN(c1ncnc3c1oc1ccccc13)CC2	-31	2	103	106
COC(=O)C1=NNC2C(=O)N(c3ccccc3C(F)(F)F)C(=O)C12 (configuration not stated)	-27	15	104	101
O=c1[nH]c(=O)n(-c2ccc(F)cc2)c(O)c1C=Nc1ccccc1	-54	nt	123	120
CSc1nc(-c2ccc(C(C)(C)C)cc2)c(C#N)c(=O)[nH]1	2	-23	99	101
CC(C)C(C)NC(=O)COc1nc2ccccc2nc1N(C)C1CCCCC1 (configuration not stated)	-31	-5	108	114
CC1CCN(CC(=O)NCc2ccccc2)CC1	0	-19	101	104
COc1ccc(-c2cc(=O)c3c(O)c(OC)c(OC)c(OC)c3o2)cc1	-3	-2	100	101
COc1cc([C@@H]2c3cc4c(cc3C(OC3O[C@@H]5COC(C)O[C@H]5[C@H](O)[C@H]3O)C3COC(=O)[C@@H]32)OCO4)cc(OC)c1O (some centres not stated)	-2	-10	101	101
Cc1cccc(N2C(=O)CC(Sc3nccc(C)n3)C2=O)c1 (configuration not stated)	4	63*	101	106

New compounds follow.
SMILES	MenB inh	MbtI inh	Polio RdRp inh	Polio RdRp inh intensity
N=C1c2ccccc2CN1c1ncc(C(F)(F)F)cc1Cl	nt	-13	103	107
Cc1cc(C)nc(NCCCC(=O)O)n1	5	88	93	115
CCN1CCC(N2CCCCC2)CC1	-23	-16	101	105
O=C(C1CCCN(c2ncnc3onc(-c4ccc(F)cc4)c23)C1)N1CCCCC1 (configuration not stated)	-20	10	104	103
CC(=O)N1c2ccccc2N=C(c2ccc(C)cc2)CC1c1ccccc1 (configuration not stated)	-19	-4	104	109
Cc1cccc(C)c1N(CC(=O)NN=C1CCCCCC1)S(C)(=O)=O	7	10	101	103
CCSc1nc2sccc2c(=O)n1-c1ccccc1	-18	13	103	111
COc1ccccc1C(=O)Oc1ccc2sc(=O)oc2c1	-14	-5	100	101
c1ccc(CN=C2NN=C(c3ccccc3)CS2)cc1	-26	34	107	100
N#Cc1ccc(COC(=O)c2ccc3c(c2)OCCO3)cc1	-3	-13	104	103
CCOc1ccc(OCCOC(=O)c2cnc(C)cn2)cc1	-11	0	105	103
CCN1CCc2nc3sc(C(=O)Nc4ccccc4)c(N)c3cc2C1	-39	10	100	104
CCn1nnnc1SCC(=O)c1ccc(C)cc1C	33*	1	99	100
CCNc1cc(N(C)CCO)c2noc3c2c1C(=O)c1ccccc1-3	-10	2	75	195
CCOc1ccc(OCc2cccc(C(=O)N3CCCC3)c2)cc1	-9	3	103	105
CC(C)(N)COc1nonc1-c1ccccc1	-11	0	105	104
O=C1NC(=S)NC(=O)C1=Cc1ccncc1	4	39	100	98
NCC1(c2ccccc2)CCCC1	-9	-7	100	103
CC(C)c1ccc(NC(=O)C2CCN(S(=O)(=O)c3ccc4c(c3)CCC(=O)N4)CC2)cc1	-27	0	103	102
CC1CC(=O)Nc2ccccc2O1 (configuration not stated)	-13	-3	104	105
CCCCOC(=O)N1C2C=CC(C2)C1(C(F)(F)F)C(F)(F)F (configuration not stated)	-40	1	100	102
O=C(Nc1nnc(C2CCCC2)s1)C1CC1	2	11	101	104
CC/C(=C\c1sc2ccc(OC)cc2[n+]1CC)SCC(=O)O	-38	7	104	107
CCOC(=O)C1(CC)CC(CSC(=N)N)OC1=O (configuration not stated)	8	-7	101	100
O=C(COC(=O)/C=C/c1cccs1)Nc1ncc(Br)s1	-23	1	104	105

Other records
SMILES	MenB inh	MbtI inh	Polio RdRp inh	Polio RdRp inh intensity
C=CCn1cc(/C=C(\C#N)C(=O)NC2CCCCC2)c2ccccc21	-116	-12	100	100
CCC(=O)N1CCN(c2ccc(NC(=O)COc3ccccc3)cc2)CC1	-25	-7	104	101
COc1cccc(/C=C/C(=O)Nc2cccc3c2C(=O)NC3=O)c1OC	-31	1	83	105
Cc1ccc(S(N)(=O)=O)cc1C(=O)NC(C)C	-4	-25	100	100
COc1ccccc1Nc1nc2cc(Cl)ccc2o1	nt	10	101	106
COc1cc(NC(C)CCCN)c2ncccc2c1 (configuration not stated)	-4&4	3&3	58*!	55*!
NC(=O)c1c(NC(=O)CSc2nc3ccccc3s2)sc2c1CCC2	-4	-104	119	130
O=S(=O)(Cc1ccccc1)N1CCC(Oc2cccc(C(F)(F)F)c2)CC1	-13	-18	102	103
CCc1ccccc1Nc1nc(N)nc(CN(C)Cc2cccs2)n1	-42	2	105	99
O=C(CSc1nnc(Cn2nnc3ccccc32)o1)N(Cc1ccc(Cl)cc1)c1ccccc1	-80	1	102	105
O=C(O)CCNc1ncnc2c1oc1ccccc12	-11	26	103	105
CCOC(=O)c1cc(-c2ccccc2)sc1NC(=O)CCN1CCN(CC)CC1	-1	nt	93	89
Brc1ccc(-c2nc(-c3cccs3)c(-c3cccs3)[nH]2)s1	-31	-4	103	107
Cc1ccc2c(c1)c1c3n2C=CNC3CCC1 (configuration not stated)	-16	13	60	171
CCCSc1nsc(NC(=O)CC)n1	19	-2	101	104
COc1ccc(Cl)cc1N1C(=O)CC(N2CC(C)OC(C)C2)C1=O (configuration not stated)	11	12	105	98
CCn1c(=N)c(C#N)cc2c(=O)n3cc(C)ccc3nc21	-5	18	103	102
C=C(C)COc1ccc2c(CC)cc(=O)oc2c1OCC(=C)C	-2	-2	100	103
COC(=O)c1cnn(C(=O)Nc2ccccc2)c1C(OC)OC	-1	-13	101	100
Nc1c(-c2ccccc2)c(CN2CCOCC2)nn1-c1ccccc1	nt	-9	101	103
C(=Nc1ccc(Nc2ccccc2)cc1)c1ccco1	-150	-7	100	103
CC(N=Cc1c(O)ccc2ccccc12)C12CC3CC(CC(C3)C1)C2 (configuration not stated)	-7	-1	101	104
CSc1nsc(SC)c1C(=O)NN1CCOCC1	-3	-7	100	105
CNC(=O)c1c(C)nc(SCC(=O)OCC(=O)Nc2ccc(C)c(C)c2)c(C#N)c1-c1ccco1	-33	2	103	95
COC(=O)/C(=C(/O)CSc1nnc(C2CC2)n1C)c1nc2ccccc2[nH]1	-21	20	101	105
CN(C)c1ccc(O)c2c1C[C@H]1C[C@H]3[C@H](N(C)C)C(=O)C(C(N)=O)=C(O)[C@@]3(O)C(=O)C1=C2O	-7	-10	103	101
CCc1ccc(OCC(=O)Nc2ccc(S(=O)(=O)C(F)F)cc2)cc1	11	-3	103	98
Cc1c(C#N)c(N)n(Cc2ccco2)c1C	-17	6	107	155
Cc1ccc(-c2cc(C(=O)NC(C)(C)CO)no2)cc1	2	-8	100	98

19 entries from above, arranged by number of heavy atoms, low to high:
SMILES	MenB inh	MbtI inh	Polio RdRp inh	Polio RdRp inh intensity
NCC1(c2ccccc2)CCCC1	-9	-7	100	103
CCN1CCC(N2CCCCC2)CC1	-23	-16	101	105
CCC(N)CC12CC3CC(CC(C3)C1)C2 (configuration not stated)	-3	-8	102	105
O=C1NC(=S)NC(=O)C1=Cc1ccncc1	4	39	100	98
Cc1ccc(S(N)(=O)=O)cc1C(=O)NC(C)C	-4	-25	100	100
CC1CCN(CC(=O)NCc2ccccc2)CC1	0	-19	101	104
COc1ccccc1Nc1nc2cc(Cl)ccc2o1	nt	10	101	106
Cc1ccc(-c2cc(C(=O)NC(C)(C)CO)no2)cc1	2	-8	100	98
NS(=O)(=O)c1ccc(NC(=O)/C=C/c2ccccc2)cc1	-24	nt	102	107
O=C1S/C(=C\c2ccc(Cl)cc2)C(=O)N1Cc1ccccc1	-21	8	101	99
O=C(COc1ccc(S(=O)(=O)N2CCCC2)cc1)N1CCCC1	30	2	100	103
CCOc1ccc(OCc2cccc(C(=O)N3CCCC3)c2)cc1	-9	3	103	105
O=C(CN1c2ccccc2Sc2ccccc21)N/N=C/c1ccco1	-6	17	101	103
COc1cc2c(cc1OC)CN(c1ncnc3c1oc1ccccc13)CC2	-31	2	103	106
CC(C)C(C)NC(=O)COc1nc2ccccc2nc1N(C)C1CCCCC1 (configuration not stated)	-31	-5	108	114
CCOC(=O)c1cc(-c2ccccc2)sc1NC(=O)CCN1CCN(CC)CC1	-1	nt	93	89
C/C(=N\N=c1/sc2ccccc2n1C)c1ccc(S(=O)(=O)NCc2ccco2)cc1	-111	1	104	110
CCCN(Cc1cc2cccc(C)c2[nH]c1=O)C(=O)c1cc(OC)c(OC)c(OC)c1	-46	12	105	102
O=C(CSc1nnc(Cn2nnc3ccccc32)o1)N(Cc1ccc(Cl)cc1)c1ccccc1	-80	1	102	105
